Screening data (PubChem BioAssay)
RanGTP-Imp inh = disruptors of Ran-importin-beta complex formation – biochemical, FRET, CFP-Ran, YFP-importin-beta, homogeneous, primary screen; AID 2216; cell-free CFP-Ran/YFP-importin-beta FRET ratio; inhibition, % (concentration not given with the values); 300,000 tested, 1.1% active;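 active = most replicates above 15%; inconclusive = exactly half above 15%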;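 also: 0% = DMSO wells and 100% = Ran loaded with GDP instead of GTP; wells of about 40 µL received 100 nL stock; the first replicate is given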
T cruzi repl = blocks replication of Trypanosoma cruzi. T. cruzi beta-gal in NIH3T3, luminescence, 90 h. inhibition, % (no concentration beside the values). 300,000 tested, 1.4% active. AID 1885;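 active = mean inhibition across valid replicates above about 55%, limit read from the data; inconclusive = mean below that limit but half or more replicates reach it; inactive = mean below it, under half of replicates reach it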;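 also: signal also drops with host cell toxicity which is not excluded here; 0% = plate median of DMSO wells and 100% = zero luminescence signal; higher percent means less beta-gal luminescence so fewer parasites; stock transfer was 50 nL into about 50 µL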
Beta cell apopt = blocks beta cell apoptosis. INS-1E cytokine-induced death, ATP luminescence, 48 h; percent of positive-control rescue, neutral wells zero. protection from apoptosis, % (no concentration beside the values). 300,000 tested, 0.8% active. AID 435005;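 active = all replicates at 75% or more, or half of them and the mean; inconclusive = half reach 75% but not the mean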;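 also: 0% = cytokine-treated negative control wells and 100% = positive control rescue; higher means more ATP so stronger rescue from cytokine killing; wells of about 40 µL received 100 nL stock; the first replicate is given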
FGF22 binding = binders of recombinant human FGF22 by thermal shift; Q9HCT0; SYPRO orange fluorescence; percent of sucrose octasulfate shift, DMSO zero; calls only at 9.99 µM; 340,000 tested, 1.5% active;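 active = melting point raised past a set limit in the mean and every replicate; inconclusive = no clear call; three in four hits are not shown here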
Target sequence (Q9HCT0 whole entry, looked up): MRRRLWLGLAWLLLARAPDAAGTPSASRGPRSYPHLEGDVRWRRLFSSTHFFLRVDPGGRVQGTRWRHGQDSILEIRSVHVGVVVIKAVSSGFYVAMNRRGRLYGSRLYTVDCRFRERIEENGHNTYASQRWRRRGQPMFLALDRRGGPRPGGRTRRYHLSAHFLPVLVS
ALR H2O2 inh = inhibitors of human sulfhydryl oxidase ALR; P55789; purified ALR, DTT oxidation, H2O2 HRP-luminol luminescence; inhibition, % (no concentration beside the values); 290,000 tested, 3.8% active; AID 485317;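 active = mean and each replicate at 75% or more; inconclusive = only one of the two met; inactive = neither met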;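 also: stock transfer was 7.5 nL into about 7.5 µL; 0% = neutral wells and 100% = wells with inactivated enzyme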
Target sequence (P55789 whole entry, looked up): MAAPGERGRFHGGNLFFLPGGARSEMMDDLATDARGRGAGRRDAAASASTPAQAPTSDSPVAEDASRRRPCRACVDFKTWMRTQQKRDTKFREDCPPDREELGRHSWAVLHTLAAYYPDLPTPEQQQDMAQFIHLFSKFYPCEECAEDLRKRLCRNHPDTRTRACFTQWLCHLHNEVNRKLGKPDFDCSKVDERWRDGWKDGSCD
AF4-AF9 inh = MLL-AF4/AF9 protein interaction inhibition; AID 651704; inhibition, % at 10 µM; AlphaScreen, biotin-AF4 peptide binding to FLAG-AF9; 350,000 tested, 0.47% active; P42568;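 active = every replicate reaching a set inhibition limit, whatever the replicate mean, cut at about 25% in these data; inconclusive = mean inhibition reaches that limit but some replicates miss it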;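 also: 0% = plate neutral control median and 100% = total signal loss; the record names both 10 and 1 µM as test concentration; the first replicate is given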
Target sequence (P42568 whole entry, looked up): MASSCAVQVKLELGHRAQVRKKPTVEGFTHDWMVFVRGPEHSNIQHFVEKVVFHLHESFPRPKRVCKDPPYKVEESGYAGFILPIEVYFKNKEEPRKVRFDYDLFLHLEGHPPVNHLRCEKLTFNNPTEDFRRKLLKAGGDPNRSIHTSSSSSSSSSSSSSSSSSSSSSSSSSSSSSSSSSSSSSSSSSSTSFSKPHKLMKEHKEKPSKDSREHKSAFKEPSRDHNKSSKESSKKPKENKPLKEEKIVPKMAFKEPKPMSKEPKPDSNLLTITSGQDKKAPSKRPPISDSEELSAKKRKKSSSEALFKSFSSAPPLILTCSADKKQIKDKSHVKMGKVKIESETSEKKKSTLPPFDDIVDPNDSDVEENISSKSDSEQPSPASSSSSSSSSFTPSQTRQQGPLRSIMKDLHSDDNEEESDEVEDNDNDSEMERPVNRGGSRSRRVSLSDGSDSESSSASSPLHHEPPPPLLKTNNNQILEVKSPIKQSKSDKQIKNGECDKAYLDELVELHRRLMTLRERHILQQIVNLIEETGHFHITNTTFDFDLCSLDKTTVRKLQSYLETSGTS
Calb FLC = affects C. albicans growth with fluconazole; AID 1979; C. albicans CaCi-2 (fluconazole-resistant clinical isolate) + fluconazole, Alamar Blue growth, 48 h; 300,000 tested, 0.57% active; growth inhibition, % (concentration not given with the values);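 active = most replicates above 75%; inconclusive = exactly half above 75%; inactive = most below 75%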;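 also: all wells also contain fluconazole at 8 µg/ml as a sub-toxic cotreatment; 0% = median of DMSO wells and 100% = median of geldanamycin control wells; wells of about 8 µL received 7.5 nL stock; the first replicate is given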
Ecoli rRNA inh = inhibitors of bacterial rRNA selective over humanized ribosomes. E. coli WT GFP vs humanized-ribosome RFP mutants, fluorescence, 24 h; active compounds read low; DMSO median 0, no signal -100. GFP signal change (wild-type ribosome), % (no concentration beside the values). 350,000 tested, 1.6% active. AID 720706;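 active = significant combined selectivity score with lowered wild-type GFP, culture density cut under 30%, mutant RFP and density less affected; inactive = any of these conditions unmet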; also: one replicate is shown; some compounds called inactive have numbers as strong as hits
Ecoli rRNA inh OD600 = recorded beside Ecoli rRNA inh, whose call it bears; OD600 change, %; measured here: OD600 growth;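 optical density of the mix in the first replicate; 0 = DMSO median and -100 = no signal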
Ecoli rRNA inh RFP = recorded beside Ecoli rRNA inh, whose call it bears; RFP signal change, %; measured here: RFP humanized mutant strains;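 first replicate; 0 = DMSO median and -100 = no signal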
Numbers without * were called inactive; i = inactive; ? = inconclusive; / = no result given; & = joins results of further samples.

Preview (2 entries):
SMILES	RanGTP-Imp inh	T cruzi repl	Beta cell apopt	FGF22 binding	ALR H2O2 inh	AF4-AF9 inh	Calb FLC	Ecoli rRNA inh	Ecoli rRNA inh OD600	Ecoli rRNA inh RFP
CC(C)(C)c1ccc(C(=O)Nc2sc3c(c2C(=O)O)CCC3)cc1	-0.2	-21	8	i	10	-1.2	38	-58	-82	-20
CC(NC(=O)c1ccc2c(c1)OCO2)C(c1cccs1)N1CCN(c2ccccc2)CC1 (centres undefined)	?	6	-3	i	30	-26	-23	3	1	-7.3

The listing, from the start:
SMILES	RanGTP-Imp inh	T cruzi repl	Beta cell apopt	FGF22 binding	ALR H2O2 inh	AF4-AF9 inh	Calb FLC	Ecoli rRNA inh	Ecoli rRNA inh OD600	Ecoli rRNA inh RFP
CC(C)(C)c1ccc(C(=O)Nc2sc3c(c2C(=O)O)CCC3)cc1	-0.2	-21	8	i	10	-1.2	38	-58	-82	-20
CC(NC(=O)c1ccc2c(c1)OCO2)C(c1cccs1)N1CCN(c2ccccc2)CC1 (centres undefined)	?	6	-3	i	30	-26	-23	3	1	-7.3
COc1cccc(OCCOc2c(OC)cccc2OC)c1	-0.5	-4	2	/	-11	/	40	/	/	/
O=S(=O)(c1ccc(Cl)nc1)N1CCOCC1	/	/	-5	i	-14	-0.1	/	0	11	-4.2
CNS(=O)(=O)c1ccc(NC(=O)c2ccoc2C)cc1	-0.3	-8	-8	i	-32	0.3	0	14	16	-0.9
COc1ccc(NC(=O)CN2CCN(S(=O)(=O)c3ccc(Br)cc3)CC2)c(OC)c1	-4.7	20	6	i	-12	-9.8	-17	8	8	0.1
CCCN(CC(=O)Nc1ccccc1OC)C(=O)c1ccc(S(=O)(=O)Nc2ccccc2)cc1	4.7	1	-4	i	0	-1.4	1	-12	-20	-2.5
Cc1ccc(C)c(NC(=S)NNC(=O)c2cc3c(s2)CCC(C)C3)c1 (centres undefined)	-2.0	-4	-8	/	2	/	1	/	/	/
COCCN1C(=O)N(c2cccc(C)c2)C(=O)C1CC(=O)Nc1ccc(OC)cc1 (centres undefined)	2.4	5	-3	i	-2	0.2	12	7	7	-1.8
O=C(O)CNC(=O)CC1S/C(=N/N=C2/NC(=O)CS2)NC1=O (centres undefined)	0.6	2	0	/	90*	/	-11	/	/	/
O=C(N/N=C/c1cc(Cl)ccc1O)C(=O)Nc1ccccc1OC(F)(F)C(F)F	/	/	89*	i	-44	3.4	/	-2	-2	10
COc1ccccc1N/N=C(\C#N)C(=N)N1CCOCC1	-3.7	-2	-3	i	82*	3.2	-14	7	5	-1.3
COc1ccc(-c2cc3nc(C)cc(C)n3n2)cc1	-4.5	1	/	/	-18	/	-5	/	/	/
CN(C)/C=C(\C#N)C(=O)c1cccnc1Oc1ccc(F)cc1F	2.7	-12	-5	/	-5	/	-13	/	/	/
CCN(CC(=O)Nc1ccc(NC(C)=O)cc1)C(=O)/C=C/c1ccc2c(c1)OCO2	4.7	2	0	/	3	-5.2	9	2	5	0.0
COc1ccccc1CNC(=O)C1=CCN(S(=O)(=O)c2ccc(C)cc2)CC1	?	-21	0	i	-36	0.6	-3	-4	-2	-3.9
O=C(NCC1(N2CCOCC2)CCCCC1)c1ccc(Cl)c(S(=O)(=O)NCc2ccco2)c1	2.7	9	6	/	-5	/	-4	/	/	/
CCOC(=O)c1sc(=NC(=O)c2ccc(Br)cc2)n(C)c1C	2.2	-5	-6	i	-4	-5.7	-6	14	16	3.2
CCCn1c(N)c(NCCN2CCOCC2)c(=O)[nH]c1=O	3.1	-9	/	i	99*	0.0	14	21	19	1.0
COc1ccc(-c2cc(C(=O)Nc3ccccc3F)on2)cc1	-0.7	-3	-5	i	1	-4.3	4	9	28	4.4
Cc1cc(=O)[nH]c(N/N=C/c2ccc(OC(=O)c3ccco3)cc2)n1	-0.2	-13	1	i	/	-2.9	32	-22	-38	-5.4
CCOc1ccc(/C(O)=C2/C(=O)C(=O)N(c3nc(C)c(C)s3)C2c2ccco2)cc1 (centres undefined)	2.0	-12	-8	/	0	/	37	/	/	/
O=C(COC(=O)C1CC2C=CC1C2)NCCc1ccccc1 (centres undefined)	-5.1	2	-15	i	-16	-3.3	2	-21*	-3.8*	0.0*
CCOC(=O)C1=C(C)N(C)C(=S)NC1c1ccccc1 (centres undefined)	4.6	-15	/	i	-2	1.2	3	9	-6	-1.6
COP(=O)(CC(=O)c1ccccc1)CC(=O)c1ccccc1	-5.0	1	-5	i	-2	-25	0	10	8	2.1
COc1ccccc1C(=O)C1CCCN(C(=O)c2ccco2)C1 (centres undefined)	0.1	-20	2	i	-2	-6.1	-11	2	-2	3.4
CCOC(=O)C1(Cc2ccc(Cl)cc2)CCN(C2CCC2)CC1	-3.4	-3	-4	i	/	3.1	-5	-16	-5	-4.3
CCCCCc1cc(=O)oc2c(C(CCN3CCCC3)c3cc(OC)c(OC)c(OC)c3)c(OC)cc(OC)c12 (centres undefined)	-0.2	50	44	i	-16	13	20	7	0	3.7
O=C(CN1CCc2ccccc21)NN1CC(=O)N(c2ccc(Cl)cc2)CC1=O	4.1	-3	-14	i	0	-9.0	5	9	10	22
COC(=O)c1c(NC(=O)CSc2nc3nc(C)cc(C)n3n2)sc(C)c1C	-0.6	25	3	i	2	-3.0	?	2	0	3.2
Cc1ccc(CNc2ccc(N3C(=O)CCCC3=O)cc2[N+](=O)[O-])cc1	-1.8	0	-3	/	/	/	-15	/	/	/
COc1cc(NC(=O)c2ccc(F)cc2)ccc1NC(=O)c1cc2ccccc2o1	2.0	-17	/	i	-4	0.7	-7	3	6	-4.3
COc1ccccc1C(=O)NCCC(=O)NC1=NCCS1	/	/	-5	i	34	-2.3	/	2	13	-1.5
c1cncc(-c2nc(-c3ccc4c(c3)OCO4)cs2)c1	-1.2	5	-5	/	-2	/	-3	/	/	/
CN(C)S(=O)(=O)N1CCC(n2nccc2NC(=O)CCc2ccccc2)CC1	-1.6	-2	-2	i	-7	-0.4	-2	12	12	-5.2
CCOC(=O)c1cc(-c2ccc(C)cc2)n(CCC(=O)NCCCOC)c1C	-1.1	1	0	/	-5	/	7	/	/	/
CCOc1ccc(-n2nc3c(Cl)nnc(C)c3c2C)cc1	3.7	-10	3	i	-7	58*	3	0	4	6.8
Cn1cc(SCC(=O)NCCc2ccccc2)c2ccccc21	5.2	-11	-2	i	-5	0.5	9	-22	-22	-2.6
CCOC(=O)C(C)N1C(=O)S/C(=C/c2ccc3c(c2)n(C)c(=O)n3C)C1=O (centres undefined)	1.3	-2	-17	i	-2	11	-3	-1	-9	0.6
O=C(CCCOc1ccc(Br)cc1)Nc1nnc(C2CC2)s1	/	/	-11	i	-3	0.2	/	2	13	-4.0
FC(F)(F)c1ccccc1NC(=S)Nc1ccccc1	1.1	0	0	i	-8	-1.8	-10	4	5	0.3
Nc1nc(CN2CCN(c3cccc(Cl)c3)CC2)nc(N2CCCc3ccccc32)n1	2.1	-17	-6	/	0	/	-8	/	/	/
N#Cc1cc(-c2ccccc2)nc(NN)n1	-1.4	19	2	i	-8	-1.8	12	-11	-35	0.8
COc1ccc(C)cc1S(=O)(=O)NCC(c1cccnc1)N1CCc2ccccc2C1 (centres undefined)	4.5	32	9	i	-7	3.4	5	-10	-19	-0.3
CCn1c(SCC(=O)OC)nnc1C1CCCCC1	-3.3	3	-6	/	2	/	-8	/	/	/
COC(=O)/C=C1\N/C(=N\c2nc(C)cc(C)n2)N(c2ccccc2)C1=O	4.1	-6	-7	i	97*	4.3	-1	-1	1	0.8
O=C(c1cc(-c2ccccc2)on1)N1CCN(Cc2ccc3c(c2)OCO3)CC1	5.7	3	/	i	/	4.6	-23	-23	-28	7.9
CC(=O)c1ccc(NC(=O)CCCN2C(=O)C(c3ccccc3)Oc3cccnc32)cc1 (centres undefined)	-4.7	-21	2	i	0	1.7	-3	-7	-17	2.5
Cc1ccccc1C(=O)N1CCN(c2ccc(NC(=S)NC(=O)c3cccs3)cc2)CC1	-4.2	24	9	i	1	7.4	23	1	-4	-1.4
CS(=O)(=O)N(CC(=O)O)c1ccc2c(c1)OCO2	0.2	-15	-5	/	6	/	-2	/	/	/
(listing goes on)
SMILES	RanGTP-Imp inh	T cruzi repl	Beta cell apopt	FGF22 binding	ALR H2O2 inh	AF4-AF9 inh	Calb FLC	Ecoli rRNA inh	Ecoli rRNA inh OD600	Ecoli rRNA inh RFP
O=C(COc1ccc2ccccc2c1Br)N1CCCC1	-0.5	13	/	i	-83	-6.1	-5	-26*	-19*	-7.1*
O=C(Nc1ccc(Cl)cc1F)c1ccc2c(c1)C(=O)N(Cc1ccncc1)C2=O	/	/	0	i	-3	-12	/	14	6	13
COC(=O)C1=C(C)NC(=O)CC1c1cc2c(cc1Br)OCO2 (centres undefined)	-2.8	-22	4	/	-3	/	2	/	/	/
COc1ccc(C(=O)Nc2cccnc2)cc1S(=O)(=O)N1CCOCC1	0.4	-2	-13	/	-11	/	5	1	-4	-3.9
O=C(NCC(c1cccs1)N1CCOCC1)c1cc(Cl)ccc1[N+](=O)[O-] (centres undefined)	0.6	-4	0	/	-36	0.8	-2	-1	1	-0.8
COc1ccccc1C(=O)NCCC(=O)N1CCCCCCC1	-4.6	-7	-1	i	-3	2.8	0	1	8	-2.2
C/C(=N/NC(N)=S)c1ccccc1[N+](=O)[O-]	?	3	-12	/	25	/	-3	/	/	/
CC(C)COC(=O)/C(C#N)=C/c1c[nH]c2ccccc12	2.3	-1	2	/	-2	/	5	/	/	/
Cc1ccccc1Oc1ccc(Oc2ccccc2C)nn1	?	14	2	i	-3	0.3	-6	4	-12	-5.6
Clc1ccc(NCc2ccsc2)cc1	2.5	-8	/	/	68	/	-92	/	/	/
COc1ccc(CN2CCC(CO)(Cc3ccccc3C(F)(F)F)CC2)c(F)c1	3.1	3	5	i	-1	-7.4	1	-19	-23	-0.9
CN(C(=O)CSc1nnc(N)s1)c1c(N)n(Cc2ccccc2)c(=O)[nH]c1=O	0.1	-2	-2	/	4	/	8	/	/	/
CN(C(=O)CS(=O)(=O)c1cn(CC(=O)N2CCOCC2)c2ccccc12)c1ccccc1	6.2	-3	2	i	-19	-0.4	5	7	1	-4.4
COc1cc(C(=O)NNC(=O)CCOc2cccc(Br)c2)cc(OC)c1OC	/	/	-4	i	-2	-1.1	/	0	-1	3.2
c1ccc2[nH]c(NCCN3CCOCC3)nc2c1	0.9	4	-1	/	6	/	-3	/	/	/
O=c1c2ccccc2c2c(O)nc(-c3ccccc3)n2n1Cc1ccccc1	1.3	9	1	/	-13	/	1	/	/	/
O=C(c1ccc([N+](=O)[O-])cc1)n1nc(-c2ccccc2)nc1NCc1ccccc1	4.3	-12	-6	/	-18	/	10	/	/	/
COc1ccccc1N=Cc1nc(-c2ccccc2)oc1OC(C)=O	1.8	-2	-6	/	/	/	2	/	/	/
COC(=O)Cc1csc(N)n1	?	-1&-21	-1&-5	/	-10&-11	/	19&15	/	/	/
O=C1C(Nc2ccccc2)=CC(c2ccc(O)cc2)N1c1ccccc1 (centres undefined)	-0.3	2	-4	i	32	-2.2	-1	-3	2	2.6

Not all compounds are listed; rates above refer to the full screens.
